TAR Tat displ – TAR RNA-Tat peptide displacers, HIV-1, primary screen, biochemical, FRET, FAM/TAMRA-labeled Tat; HIV-1 TAR RNA, Tat peptide displacement FRET; active compounds read high; z-score (concentration not given with the values); hit rate 0.6% among 100,000; AID 1259389, 2018;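 note: score is relative to mean and SD of negative controls; some compounds called inactive have numbers as strong as hits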
CDC25B CDK2 inh – primary biochemical HTRF screen for blockers of M-phase inducer phosphatase 2 binding to CDK2/cyclin A; hit rate 0.72% among 94,000; P30305+P24941; z-score (test concentration not listed); AID 1259370, 2018; HTRF CDC25B-CDK2/CyclinA binding, anti-His/anti-Flag; active compounds read high;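 note: score is relative to mean and SD of negative controls; strong numbers were not always called active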
An asterisk follows results filed as active; . = no result given.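 Rule for the calls: active = z-score from 3 up in half or more of its runs; inactive = the rest.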

SMILES	TAR Tat displ	CDC25B CDK2 inh
CCCCCCn1c(=O)[nH]c2nc3cc(N)c(C)cc3nc2c1=O	-6.1	-0.8
CC1(C)CS(=O)(=O)N(c2ccc(C(=O)Nc3nccs3)cc2)C1=O	1.1	-0.97
CCCC(=O)Oc1cccc(-n2cnnn2)c1	-0.97	-1.5
COc1ccc(NC(=O)COCc2cc(-c3cccs3)on2)cc1OC	1.4	.
COc1ccc(C2CC(c3c(-c4ccccc4)c4cc(Cl)ccc4[nH]c3=O)=NO2)cc1 (configuration not stated)	.	-2.6
O=C(NC1CCCC1)NC1(C(F)(F)F)Oc2ccc(Cl)cc2O1 (configuration not stated)	.	-0.67
N#CC1=C(SCC(=O)OCc2ccccc2)NC(=O)CC1c1ccc(F)cc1 (configuration not stated)	0.42	-1.5
O=C(NCC1CCCO1)C1CCCN(Cc2cnn(-c3ccccc3)c2-n2cccc2)C1 (configuration not stated)	0.29	0.07
Cc1nnc(SC2CCN(S(=O)(=O)c3ccc(F)cc3)CC2)s1	0.99	-1.1
CCCSc1nc2c(c(=O)[nH]1)C(c1ccc(C)cc1C)CC(=O)N2 (configuration not stated)	0.7	-2.6
Cn1nc(C(=O)N2CCN(c3cccc(Cl)c3)CC2)c2c1-c1ccccc1OC2	0.36	-2.5
O=C(NCc1ccco1)C1CCN(C(=O)c2cc3sccc3n2Cc2ccc(Cl)cc2)CC1	.	-0.41
CC(COc1ccccc1Cc1ccccc1)N1CCCCC1 (configuration not stated)	0.8	.
CC(C)NC(=O)C(NS(=O)(=O)c1cccs1)C(C)C (configuration not stated)	1.5	.
C=CCC1NCCc2c(Br)cccc21 (configuration not stated)	-0.11	-0.72
COc1cc(NC(=S)NNC(=O)c2ccc([N+](=O)[O-])cc2)c(OC)cc1Cl	.	0.12
CCn1c(C(=O)N2CCCC(C(=O)N3CCN(c4ncccn4)CC3)C2)cc2sccc21 (configuration not stated)	-0.14	-3
Fc1ccc(-c2noc3ncnc(NC4CCN(Cc5ccccc5)CC4)c23)cc1	1.4	.
COc1ccc(N2CCN(CCNc3ncnc4c3nc3n4CCCC3)CC2)cc1	0.84	.
CCCC[B-]1(CCCC)N2C=CC=CC2=Nc2cccc[n+]21	.	0.1
CC12CN3CC(C)(CN(C1)C3c1cccc3ccccc13)C2O (configuration not stated)	0.13	-1.7
CCOC(=O)Cc1cnc(NC(=O)CSc2nnc3c(n2)-c2cccc4cccc-3c24)s1	0.71	-0.02
COCCCNC(=O)CCCn1ncn2c(cc3occc32)c1=O	-1.5	-0.04
CCCCN1C(=O)CSc2c(c3ccccc3n2C)C1C(=O)NCCC(C)C (configuration not stated)	-0.13	.
CCN1c2ccccc2-n2cccc2C12CCN(C(=O)Nc1ccccc1Br)CC2	0.3	.
O=S(=O)(NCc1nc(-c2ccccc2)no1)c1ccccc1	1.8	-0.66
Cc1cc(Cl)cc2c1C(=O)/C(=C\c1cc(Br)cs1)S2	.	-1.3
O=C(CS(=O)(=O)c1cccc2nsnc12)Nc1ccc2c(c1)OCCO2	2.9	.
COc1ccccc1/C=C/c1nn2c(-c3ccc(C)cc3)nnc2s1	1.3	2.4
O=C(Nc1ccc(Cl)c(-c2nc3ccccc3s2)c1)c1sc2ccccc2c1Cl	.	-4.2
O=C(CN1N=C(c2ccccc2)c2ccccc2S1(=O)=O)NCc1ccc2c(c1)OCO2	0.58	.
COc1cccc2c(C)nc(NC3=NCN(CCc4ccccc4)CN3)nc12	0.83	-0.86
Cc1ccc(NS(=O)(=O)c2ccc3c(c2)NC(=O)C(C)S3)c(C)c1 (configuration not stated)	1.4	.
CNS(=O)(=O)c1cn(CC(=O)N2CCc3ccccc3C2)cc1S(=O)(=O)NC	-0.68	.
COc1ccc2[nH]c(C)cc2c1	.	-1.9
O=S(=O)(Nc1cccc(-c2ccc(N3CCCC3)nn2)c1)c1ccc(F)cc1	1.2	.
CN(CCNC(=O)Cn1ncc2c3ccccc3n(C)c2c1=O)C1CCCCC1	0.6	-1.3
CCc1c2ccc(C)n2cc[n+]1CC(=O)c1ccccc1	-5.3	0.56
COc1ccc(N2COc3ccc(OC)cc3C2)cc1	.	-4.5
Cc1ccc(-c2n[nH]c(=O)c(Cc3ccco3)n2)cc1	-0.12	.
O=C(Nc1sc2c(c1C(=O)NCc1ccco1)CCC2)c1cc(=O)c2ccccc2o1	1.3	-2.1
CN1CC(=O)N2[C@H](c3ccc4c(c3)OCO4)c3[nH]c4ccccc4c3C[C@@H]2C1=O	-0.02	.
CCC(C)Oc1ncnc2c1sc1nc(N3CCOCC3)c3c(c12)CC(C)(C)OC3 (configuration not stated)	-1.3	0.26
CCN1CCN(c2cc(NCC(=O)O)c3c4c(onc24)-c2ccccc2C3=O)CC1	0.3	0.53
Cc1ccc(NS(=O)(=O)c2ccc3c(c2)NC(=O)C(C)S3)cc1C (configuration not stated)	2.4	.
Cc1cc(NS(=O)(=O)c2cc(C(=O)N3CCCC3)cs2)no1	0.04	.
O=C(C1CC(c2ccc(F)cc2)=NO1)N1CCN(c2ccc(F)cc2)CC1 (configuration not stated)	0.33	-1.2
CCC1(CC)Cc2ccccc2C(NC(=O)NCCc2ccccc2)=C1C#N	1.9	-1.1
O=C(c1noc2c1CCc1sccc1-2)N1CCCc2ccccc21	-0.35	.
CCOC(=O)c1c(C)oc2nc(C)nc(Nc3cccc(Cl)c3)c12	0.78	.
COc1ccc(Nc2ncc3c(n2)CCN(Cc2ccc(C)s2)C3)cc1	0.14	.
COc1cc(S(=O)(=O)N2CCN(c3cc(N4CCCC4)nc(C)n3)CC2)c(C)cc1C	0.5	-0.94
COc1cnc(CSc2ccc(Cl)cc2)cc1OCC(=O)Nc1ccc2c(c1)OCCO2	1.1	.
Cc1nc2nc(NCc3cccs3)nn2c(C)c1Cl	0.51	0.41
COc1ccc(Nc2ncnc3c2cnn3-c2cccc(Cl)c2)cc1	1.5	.
O=c1n(CCSc2nnnn2-c2ccccc2)nnn1-c1ccccc1	.	-1.4
O=C(Nc1ccc(F)c(Cl)c1)C1Nc2ccccc2S(=O)(=O)N1 (configuration not stated)	0.29	.
COCCOC(=O)C1=C(C)NC2=C(C(=O)CCC2)C1c1ccc(N(C)C)cc1 (configuration not stated)	0.6	-0.86
CCOC(=O)c1c(NC(=O)c2sc3ccccc3c2Cl)sc2c1CCN(C)C2	-7.8	.
CN(CC(=O)Nc1nccs1)S(=O)(=O)c1ccc2[nH]c(=O)ccc2c1	1.7	.

The list goes on:
SMILES	TAR Tat displ	CDC25B CDK2 inh
OCc1ccc(C#Cc2ccccc2)o1	.	-0.71
Cc1ccc(-c2nc3cc(N)ccc3o2)cc1Cl	1.2	1.2
CC1(C)OC2C(CSC#N)OC(n3cnc4c(=O)[nH]cnc43)C2O1 (configuration not stated)	.	0.58
COc1ccc(C2C(C#N)=C(N)OC(C3CC3)=C2C#N)cc1 (configuration not stated)	.	-2.4
COc1ccccc1N1CCN(c2nc(-c3cccc(OC)c3OC)no2)CC1	0.39	.
CN(C)CCCNc1nc(N)c([N+](=O)[O-])c(Nc2cccc(F)c2)n1	2.3	.
Cc1cc(C)c2oc(C(=O)N(Cc3ccco3)C3CCS(=O)(=O)C3)cc(=O)c2c1 (configuration not stated)	1.2	-1.8
CC1CCCN(c2c(-c3ccc4c(c3)OCC(=O)N4)c(=O)c2=O)C1 (configuration not stated)	-0.87	.
O=C(Nc1nnc(SCCN2C(=O)c3ccccc3S2(=O)=O)s1)c1ccccc1	0.33	1.1
O=C(NC(=O)c1c(Cl)cccc1Cl)Oc1c(F)cccc1F	.	-0.13
Cc1noc2ncnc(NCCCN3CCCC(C)C3)c12 (configuration not stated)	1	.
Cc1sc2ncnc(Nc3cccc(Cl)c3)c2c1S(=O)(=O)N1CCC(C)CC1	.	-0.1
NC(Cc1ccc(O)cc1)C(=O)O (configuration not stated)	2.1	.
CCCOc1ccc(Oc2ncnc3sc(C)cc23)cc1	0.62	.
COCCNC(=O)c1cc2c(s1)-c1ccsc1CC2	-1.4	.
Cc1cccc(CN2CCc3nc(N4CCN(c5ccccn5)CC4)ncc3C2)c1	0.57	.
COc1ccc(Nc2cnnc3c(Cl)cccc23)cc1Cl	-0.21	.
O=C(Cn1ncn2nc(-c3ccco3)cc2c1=O)NCc1ccc2c(c1)OCO2	0.11	-2.7
C=C(C)Cn1c(C2CC(=O)N(c3cccc(OC)c3)C2)nc2ccccc21 (configuration not stated)	0.65	-1
O=C(Cc1ccccc1)OCc1cc(=O)n2c3c(sc2n1)CCCC3	0.13	.
OC(CNCCN1CCOCC1)Cn1nnnc1-c1ccccc1 (configuration not stated)	-0.85	-1.2
O=C(CCc1nc(CS(=O)(=O)c2ccccc2)no1)N1CCC(N2CCCCC2)CC1	1.1	.
Cc1ccc2occ(C3Nc4ccccc4NC4=C3C(=O)CC(c3cccs3)C4)c(=O)c2c1 (configuration not stated)	.	-2.3
Cc1cc(C)c(NS(=O)(=O)c2ccc3c(c2)CC(C)N3C(=O)C2CCC2)c(C)c1 (configuration not stated)	-1.9	.
N#Cc1cc(-c2ccccc2)nc2ccc(Br)cc12	.	-1.6
O=C(c1cc2c(s1)-c1ccccc1OC2)N1CCc2ccccc2C1	0.14	-1.2
CCN1CCN(C(=O)CN2C(=O)c3cccnc3Oc3ccc(Cl)cc32)CC1	2.7	.
CC12CC(c3c(ccc4ccccc34)O1)C(c1nc3ccccc3s1)C(=O)N2 (configuration not stated)	.	-2.3
Cc1cc(C)cc(Nc2nc(C)cc(=O)[nH]2)c1	1.6	-1.7
COC(=O)c1ccc(CSc2nc3c(c(=O)[nH]2)CCCC3)cc1	0.07	-0.52
CC(C)c1cc(=O)c2c(=O)n(-c3ccccc3)[nH]c2[nH]1	1	-2
Cc1nc([N+](=O)[O-])c(Sc2nc3ccccc3n2C)n1Cc1ccccc1	-1.1	-0.59
C=CCN1C(=O)C2(/C(=C(/O)c3ccc(C)cc3)C(=O)C(=O)N2CCOC)c2ccccc21 (configuration not stated)	0.16	-0.31
CCc1ccc(-n2nnc(-c3nc(-c4ccccc4F)no3)c2N)cc1	0.19	.
Fc1ccc(CSc2nnc(-c3ccncc3)s2)cc1	.	-0.45
CN(C)S(=O)(=O)N(CC(=O)Nc1ccccc1F)c1ccccc1	-0.2	0.11
Cc1csc(Sc2nc3c(c(=O)[nH]c(=O)n3C)n2Cc2ccccc2Cl)n1	-0.06	0.68
CCN(C(=O)c1sc(NC(=O)c2cccs2)c(C#N)c1C)C1CCCCC1	0.42	-0.11
COc1ccccc1-c1nnc2sc(COc3ccc(Cl)cc3)nn12	1.3	2.6
CC(=O)Nc1nnc2n1CCS2	1.6	.
Cc1ccc(CN2CCN=C2c2c[nH]c3ccccc23)cc1	0.34	-0.76
COc1ccc(Nc2sc(C(C)=O)cc2[N+](=O)[O-])cc1	.	-0.88
CCOc1ccc(CCNc2nc3ccc(Cl)cc3n3cnnc23)cc1OCC	0.73	-1.8
O=S1(=O)C[C@H](NCc2ccco2)[C@@H](S(=O)(=O)c2ccc(F)cc2)C1	-0.32	-1.2
O=S(=O)(Nc1ccc(Cl)cc1)c1cccc2nonc12	.	-0.45
Cc1cc(N2C(=O)CCS2(=O)=O)ccc1S(=O)(=O)N1CCN(c2ccccc2)CC1	0.26	-2.2
COCCCNC(=O)c1nn(C)c2c1CSc1ccccc1-2	1.8	0.97
C/C(=N\N=C(/N)SCc1cc(F)cc2c1OCOC2)c1ccc(C)nc1	.	-0.56
Cc1ccccc1Cn1c2ccccc2c2cnn(CC(=O)N(C)Cc3ccccc3)c(=O)c21	0.33	-13
Cc1cc(F)ccc1NC(=O)C1=Cc2cc(Br)ccc2OC1	0.67	.
CCCCCc1ccc(C(=O)CCC(=O)O)cc1	.	-1.2
COc1c(S(=O)(=O)c2ccc(C)c(F)c2)cnc2ccc(C)cc12	0.96	-1.1
COc1ccc(OC)c(-c2noc(N3CCN(C(=O)c4ccco4)CC3)n2)c1	0.7	.
CCOC(=O)c1c(N)n(-c2ccc(OCC)cc2)c2nc3ccccc3nc12	.	-3.7
CCCc1cc(=O)n2nc(N3CCC(C(=O)NCc4ccc(C)o4)CC3)sc2n1	1.1	-1.6

Screening data deposited in PubChem by Center for Chemical Genomics, University of Michigan.
